High-throughput results: PubChem, National Center for Advancing Translational Sciences (NCATS)
NS1 function inh: qHTS Assay for Inhibitors of Influenza NS1 Protein Function | S. cerevisiae slowed by influenza A NS1, growth recovery by OD600 | Potency, µM (highest dose often 46.1 µM), without a hit: at the top dose activity, positive = more growth | hit rate 0.4% among 270,000 | AID 2326, 2010; active means well fitted rising curve with a large enough effect; inconclusive means small, poorly fitted or top-dose-only effect; inactive means no such curve, though single readings can be large or run the other way; also: nearly all actives have a fitted effect of over 50% in size
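Compounds were scored for reversing the slow growth caused by influenza A NS1 in S. cerevisiae, measured by optical density at 600 nm. Assay medium contained 2% galactose at pH 6.0; NS1-free yeast of the same strain were the positive control.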
Cruzain inh noDet: qHTS Assay for Promiscuous and Specific Inhibitors of Cruzain (without detergent). Cruzipain (Trypanosoma cruzi), P25779. purified cruzain, Z-FR-AMC fluorescence, no detergent. Potency, µM, for inactives: max response, negative = inhibition, most hits filed as inhibitors. hit rate 2.3% among 200,000;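 also: plate controls were enzyme without inhibitor for no effect and buffer without enzyme for full effect; nearly all actives have a fitted effect of over 40% in size; top concentration of the series not given in the record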
Target sequence (P25779 123-467 limits assumed): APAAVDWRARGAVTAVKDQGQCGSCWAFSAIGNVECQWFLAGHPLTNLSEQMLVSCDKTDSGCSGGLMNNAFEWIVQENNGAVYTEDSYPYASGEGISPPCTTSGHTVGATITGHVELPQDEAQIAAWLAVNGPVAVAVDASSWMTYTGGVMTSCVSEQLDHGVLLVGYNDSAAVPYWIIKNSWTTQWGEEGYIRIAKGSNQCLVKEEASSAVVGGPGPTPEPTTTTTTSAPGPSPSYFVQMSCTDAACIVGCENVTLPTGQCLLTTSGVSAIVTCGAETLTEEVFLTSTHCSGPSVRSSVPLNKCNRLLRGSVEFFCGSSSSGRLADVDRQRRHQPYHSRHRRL
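Detergent-free condition (0.00005% Triton X-100) in acetate buffer pH 5.5 with DTT. 1.5 nM enzyme and compound were pre-mixed 15 min, then 2 uM Z-FR-AMC substrate added; reaction progress from fluorescence change between first and third reads (60 s).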
Cruzain Triton: qHTS Assay for Promiscuous and Specific Inhibitors of Cruzain (with detergent); Cruzipain (Trypanosoma cruzi), P25779; purified cruzain, Z-FR-AMC fluorescence, 0.01% Triton; Potency, µM, for inactives: max response, negative = inhibition, hits mostly inhibitors; hit rate 0.43% among 200,000; AID 1478, 2009;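 also: plate controls were neutral wells for no effect and buffer without enzyme for full effect; nearly all actives have a fitted effect of over 40% in size; top concentration of the series not given in the record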
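Z-FR-AMC hydrolysis (2 uM substrate) by cruzain (1.5 nM) monitored kinetically at ex 360/em 450 nm after 15 min room-temperature compound exposure; 0.01% Triton X-100, pH 5.5, 5 mM DTT.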
StopGo reporter: High Throughput Screening for Foot and Mouth Disease Virus Antivirals. Potency, µM (doses to about 57.9 µM), for the others: at the top dose signal change, negative = less light. hit rate 1.2% among 410,000. human cells with a luciferase reporter of 2A StopGo recoding; control for the full effect not named in the record; active = well fitted falling curve with a large enough effect; inconclusive = small, poorly fitted or top-dose-only effect; inactive = no such curve, though single readings can be large or run the other way; tested in HEK293T cells; also: % is scaled to controls: 0 for no effect and ±100 for the full control effect; nearly all actives have a fitted effect of over 45% in size; luciferase light after 4 h
Marburg entry inh: qHTS for inhibitors of binding or entry into cells for Marburg Virus; Marburg virus pseudotyped entry inhibition, cell reporter; control for the full effect not named in the record; about a third of the inactives were read at about 46 µM; Potency, µM (titrated, usually from 37.8 µM), for the others: at the top dose activity change, negative = inhibition, actives largely listed as inhibitors; hit rate 1.8% among 300,000; active = well fitted inhibition curve with a large enough effect; inconclusive = small, poorly fitted or top-dose-only effect, or effect the other way; inactive = flat fitted curve, though single readings scatter; tested in HEK293 cells; about a fifth of its hits are not listed in these tables; also: % is scaled to controls: 0 for no effect and ±100 for the full control effect; luciferase read-out
SARS PLpro yeast: qHTS of Yeast-based Assay for SARS-CoV PLP; S. cerevisiae expressing SARS-CoV PLpro, growth rescue; control for the full effect not named in the record; Potency, µM (top dose mostly 32.9 µM), for inactives: at the top dose activity, positive = growth rescue; hit rate 0.19% among 330,000; active means well fitted rising curve with a large enough effect; inconclusive means small, poorly fitted or top-dose-only effect; inactive means no such curve, though single readings can be large or run the other way; also: 0% is about no effect; nearly all actives have a fitted effect of over 55% in size; growth read by luminescence after 48 h
RE007 growth inh: qHTS Assay for Inhibitors of the HIV-1 protein Vpr. AID 651644, 2012. hit rate 0.21% among 360,000. S. pombe RE007 Vpr strain, BacTiter-Glo ATP luminescence, 24 h; control for the full effect not named in the record. Potency, µM (doses to about 92.2 µM), for the others: at the top dose activity change, negative = less growth; active = well fitted falling curve with a large enough effect; inconclusive = small, poorly fitted or top-dose-only effect; inactive = no such curve, though single readings can be large or run the other way;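 also: % is scaled to controls: 0 for no effect and ±100 for the full control effect; nearly all actives have a fitted effect of over 50% in size; the assay follows cell death caused by Vpr and the record does not say whether a fall means rescue or toxicity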
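Fission yeast strain RE007, carrying one chromosomally integrated HIV-1 vpr copy, was seeded at OD 0.01 in PMG+AL medium with 23 nL pinned compound. After 24 h at 30 °C and 99% humidity, viability was read by BacTiter-Glo luminescence.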
LASV entry inh: qHTS for Inhibitors of binding or entry into cells for Lassa Virus; Lassa virus pseudotype entry inhibition, cell reporter; control for the full effect not named in the record; Potency, µM (titrated, usually from 37.9 µM), without a hit: at the highest dose activity change, negative = inhibition, hits mostly inhibitors; hit rate 1.2% among 300,000; active means well fitted inhibition curve with a large enough effect; inconclusive means small, poorly fitted or top-dose-only effect, or effect the other way; inactive means flat fitted curve, though single readings scatter; tested in HEK293 cells; also: % is scaled to controls: 0 for no effect and ±100 for the full control effect; nearly all actives have a fitted effect of over 50% in size; luciferase read-out
Active calls of the source: *; & = joins results of further samples; [ ] = remark or other dose. Unless noted, calls follow the shape of the dose curve; as a rule, active = well fitted curve in the direction sought with a large enough effect; inconclusive = small, poorly fitted or top-dose-only effect, or another doubt; inactive = no such curve, though single readings can be large; an effect the other way counts as inactive or inconclusive. Potency is read from the fitted curve at half-maximal effect.

Results for CCCC(=O)N1CCN(c2ccc([N+](=O)[O-])cc2Cl)CC1 ?
NS1 function inh: -9%; Cruzain inh noDet: 4%; Cruzain Triton: -5.4%; StopGo reporter: -21%; Marburg entry inh: 0%; SARS PLpro yeast: -22%; RE007 growth inh: -8%; LASV entry inh: -12%

What do the screens show for `CCOC(=O)C1=C(N)Oc2c(oc(CO)cc2=O)C1c1c(F)cccc1Cl` (configuration not stated)?
NS1 function inh: -7%; Cruzain inh noDet: -1%; Cruzain Triton: 2.3%; StopGo reporter: 0%; Marburg entry inh: -11%[46.1 µM]; SARS PLpro yeast: 3%; RE007 growth inh: 30%; LASV entry inh: 4%

Results for O=C(COc1ccccc1F)Nc1ccccc1C(=O)OCc1cc(=O)n2nc(C3CC3)sc2n1 ?
Cruzain inh noDet: 14%; Cruzain Triton: 1.7%; StopGo reporter: -20%; LASV entry inh: 23%[46.1 µM]

How did CC1CCCCN1S(=O)(=O)c1ccc(S(=O)(=O)N2CCCC2)cc1 (configuration not stated) do in these assays?
NS1 function inh: 2%; StopGo reporter: -9%; Marburg entry inh: -10%[46.1 µM]; SARS PLpro yeast: 2%; RE007 growth inh: 3%; LASV entry inh: -1%[46.1 µM]

Results for CC(=O)c1cccc(NC(=O)COC(=O)CCNS(=O)(=O)c2ccccc2)c1 ?
StopGo reporter: -16%; Marburg entry inh: 21%; SARS PLpro yeast: 6%; RE007 growth inh: 2%; LASV entry inh: 21%

How did Cc1nn2c(NCCCN(C)C)c3c(nc2c1-c1ccccc1)CCCC3 do in these assays?
NS1 function inh: -2%; StopGo reporter: -14%; Marburg entry inh: 7.1µM*; SARS PLpro yeast: -1%; RE007 growth inh: 7%; LASV entry inh: inconclusive

What do the screens show for `O=C(NCc1ccco1)c1cccc(S(=O)(=O)N2CCCC2)c1`?
NS1 function inh: inconclusive; StopGo reporter: 10%; Marburg entry inh: 2%[46.1 µM]; SARS PLpro yeast: 2%; RE007 growth inh: -18%; LASV entry inh: -10%

Results for Cc1ccccc1OCCNC(=O)c1ccc2ccccc2n1 ?
NS1 function inh: -43%; Cruzain inh noDet: 8%; Cruzain Triton: -7.1%; StopGo reporter: 16%; Marburg entry inh: inconclusive; SARS PLpro yeast: 25%; RE007 growth inh: -16%; LASV entry inh: -28%

How did c1ccc(-c2c3ccccc3nc3[nH]c4ccccc4c23)cc1 do in these assays?
NS1 function inh: 0%; Cruzain inh noDet: inconclusive; Cruzain Triton: 0.7%&1.0%; StopGo reporter: -5%; Marburg entry inh: -42%; SARS PLpro yeast: -16%; RE007 growth inh: -5%; LASV entry inh: inconclusive

What do the screens show for `O=C(Oc1ccc(Cl)c2cccnc12)N1CCCCCC1`?
NS1 function inh: -6%; Cruzain inh noDet: -2%; Cruzain Triton: -6.8%; StopGo reporter: -11%; Marburg entry inh: 20%; SARS PLpro yeast: -7%; RE007 growth inh: inconclusive; LASV entry inh: 18%

What do the screens show for `O=c1nc(N(c2ccccc2)c2ccccc2)[nH]c(=O)[nH]1`?
NS1 function inh: 3%[9.22 µM]; Cruzain inh noDet: -2%; Cruzain Triton: -1.0%; StopGo reporter: -13%; Marburg entry inh: -2%; SARS PLpro yeast: -6%; RE007 growth inh: 4%; LASV entry inh: 0%

Results for CN(C)C(=O)CCC(=O)N(C)CC1CCCN(CCc2ccc(F)cc2)C1 (configuration not stated) ?
NS1 function inh: 6%; StopGo reporter: 35%[activator]; SARS PLpro yeast: 2%; RE007 growth inh: -10%

Results for CC(C)(C)c1ccc(C(=O)NNC(=O)c2ccccc2Br)cc1 ?
NS1 function inh: 7%; Cruzain inh noDet: -11%; Cruzain Triton: -1.3%; StopGo reporter: 29%; Marburg entry inh: -22%; SARS PLpro yeast: 0%; RE007 growth inh: 2%; LASV entry inh: -12%

How did Cc1ccc(C)c(N2CCN(S(=O)(=O)c3cnc(N)nc3)CC2)c1 do in these assays?
Cruzain inh noDet: -8%; Cruzain Triton: -1.4%; StopGo reporter: -11%; LASV entry inh: 20%[46.1 µM]

What do the screens show for `Cc1noc(-c2ccc(NC(C)c3ccccc3)c([N+](=O)[O-])c2)n1` (configuration not stated)?
Cruzain inh noDet: -16%; Cruzain Triton: -15%; StopGo reporter: -16%; Marburg entry inh: 0%[46.1 µM]; LASV entry inh: -9%[46.1 µM]

What do the screens show for `Cc1ccc(S(=O)(=O)NCC2CCC(C(=O)NCc3cccs3)CC2)cc1` (configuration not stated)?
StopGo reporter: -16%; Marburg entry inh: -22%; SARS PLpro yeast: -4%; RE007 growth inh: -8%; LASV entry inh: -15%

What do the screens show for `c1nc(NC2CCCCC2)c2[nH]cnc2n1`?
NS1 function inh: 1%; Cruzain inh noDet: -4%; Cruzain Triton: 6.8%; StopGo reporter: -8%; Marburg entry inh: 8%&8%; SARS PLpro yeast: 3%; RE007 growth inh: 0%[3.69 µM]; LASV entry inh: 2%

How did COc1ccc(S(=O)(=O)NC(CCSC)C(=O)NC2CCCCC2)cc1 (configuration not stated) do in these assays?
StopGo reporter: 3%; Marburg entry inh: -13%[46.1 µM]; SARS PLpro yeast: 0%; RE007 growth inh: 2%; LASV entry inh: inconclusive

How did CCOc1cc(CNc2ncn[nH]2)ccc1OCC(=O)NC(C)(C)C do in these assays?
NS1 function inh: -1%; StopGo reporter: -7%; Marburg entry inh: 17%[46.1 µM]; SARS PLpro yeast: 1%; RE007 growth inh: 17%; LASV entry inh: -5%

What do the screens show for `CCn1c(-c2ccccc2Cl)nn(CC(=O)NCCc2ccccc2)c1=S`?
NS1 function inh: -3%; Cruzain inh noDet: 2%; Cruzain Triton: -0.5%; StopGo reporter: -22%; Marburg entry inh: -35%; SARS PLpro yeast: 8%; RE007 growth inh: -4%; LASV entry inh: 5%

How did COc1cc(OC)c(NS(=O)(=O)c2cc(-c3cnc(C4CC4)o3)ccc2C)cc1Cl do in these assays?
Cruzain inh noDet: -1%; Cruzain Triton: -3.4%; StopGo reporter: -7%; LASV entry inh: inconclusive

Results for O=C(c1cc([N+](=O)[O-])cc([N+](=O)[O-])c1)N(Cc1nnc(-c2ccccc2Cl)o1)C1CC1 ?
StopGo reporter: -7%; Marburg entry inh: inconclusive; SARS PLpro yeast: -2%; RE007 growth inh: -2%; LASV entry inh: -28%

What do the screens show for `CCC(=O)N1CCc2cc(CNS(=O)(=O)c3ccccc3F)ccc21`?
Cruzain inh noDet: -4%; Cruzain Triton: 0.1%; StopGo reporter: 37%[activator]; LASV entry inh: -2%[46.1 µM]

How did O=C1CN(C(=O)c2c(F)cccc2F)C(c2ccc(F)cc2)c2cc(Br)ccc2N1 (configuration not stated) do in these assays?
NS1 function inh: 16%; StopGo reporter: 0%; SARS PLpro yeast: -4%; RE007 growth inh: 21%

How did CC1Oc2ccccc2C=C1C1/C(=C(/O)c2ccccc2)C(=O)C(=O)N1CCCN(C)C (configuration not stated) do in these assays?
NS1 function inh: -8%; Cruzain inh noDet: -8%; Cruzain Triton: -3.7%; StopGo reporter: -19%; Marburg entry inh: 0%; SARS PLpro yeast: -3%; RE007 growth inh: -1%; LASV entry inh: 3%

How did CCOc1ccc(-c2nc(CS(=O)(=O)CC(=O)NCc3ccc(F)cc3)c(C)o2)cc1 do in these assays?
NS1 function inh: 26%; StopGo reporter: 22%; SARS PLpro yeast: -2%; RE007 growth inh: 4%

What do the screens show for `O=C(Cn1c(=O)oc2ccccc21)NC(=O)NCc1ccccc1`?
NS1 function inh: 0%; Cruzain inh noDet: -6%; Cruzain Triton: 5.2%; StopGo reporter: -24%; Marburg entry inh: -13%; SARS PLpro yeast: -2%; RE007 growth inh: 0%; LASV entry inh: -5%

What do the screens show for `O=C(Nc1ccc2c(c1)CCC2)c1cc(S(=O)(=O)N2CCN(c3ccccc3)CC2)ccc1Cl`?
NS1 function inh: 14%; Cruzain inh noDet: 4µM*; Cruzain Triton: 0.6%; StopGo reporter: -4%; Marburg entry inh: inconclusive; SARS PLpro yeast: 0%; RE007 growth inh: 8%; LASV entry inh: -5%

How did Nc1nonc1-c1nc2ccccc2n1CCC(=O)O do in these assays?
NS1 function inh: -4%; Cruzain inh noDet: -1%; Cruzain Triton: 1.3%; StopGo reporter: 9%; Marburg entry inh: -3%; SARS PLpro yeast: 6%; RE007 growth inh: 2%; LASV entry inh: 2%

How did Cc1c(NC(=O)c2sc3c([N+](=O)[O-])cccc3c2Cl)cccc1-c1nc2ccccc2o1 do in these assays?
Cruzain inh noDet: -2%; Cruzain Triton: 1.4%; StopGo reporter: 12%; Marburg entry inh: inconclusive; LASV entry inh: 27%[46.1 µM]

Results for O=C(Nc1cccnc1)Nc1ccc2c(c1)OCO2 ?
NS1 function inh: -5%; Cruzain inh noDet: -10%; Cruzain Triton: -0.4%; StopGo reporter: 44%[activator]; Marburg entry inh: 3%; SARS PLpro yeast: -12%; RE007 growth inh: 2%[3.69 µM]; LASV entry inh: -3%

Results for COc1ccc(O)c(C(=O)c2cnn(C(=O)c3cccc(N(C)C)c3)c2)c1 ?
StopGo reporter: 33%[activator]; Marburg entry inh: -5%; SARS PLpro yeast: -4%; RE007 growth inh: inconclusive; LASV entry inh: 3%

How did COc1cc(C)ccc1OCCOCCOc1ccc(C)cc1[N+](=O)[O-] do in these assays?
NS1 function inh: -9%; Cruzain inh noDet: 1%; Cruzain Triton: -5.1%; StopGo reporter: -9%; Marburg entry inh: 1%; SARS PLpro yeast: -16%; RE007 growth inh: -6%; LASV entry inh: 1%

How did CCC(=O)N1c2ccc(S(=O)(=O)CCC(=O)N3CCn4c3nc3ccccc34)cc2CC1C (configuration not stated) do in these assays?
NS1 function inh: -9%; Cruzain inh noDet: inconclusive; Cruzain Triton: -2.3%; StopGo reporter: inconclusive; Marburg entry inh: 3%; SARS PLpro yeast: 3%; RE007 growth inh: -6%; LASV entry inh: 16%
